High-throughput results as filed in PubChem.
Calb FLC = C. albicans growth inhibition with fluconazole, primary screen, CaCi-2 strain, Alamar Blue fluorescence. C. albicans CaCi-2 (fluconazole-resistant clinical isolate) + fluconazole, 48 h. 300,000 tested, 0.57% active. growth inhibition, % (concentration not given with the values);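 active means most replicates above 75%; inconclusive means exactly half above 75%; inactive means most below 75%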;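 further: all wells also contain fluconazole at 8 µg/ml as a sub-toxic cotreatment; 0% = median of DMSO wells and 100% = median of geldanamycin control wells; wells of about 8 µL received 7.5 nL stock; the first replicate is given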
AF4-AF9 inh = inhibitors of AF4 peptide binding to AF9, primary screen, biochemical, AlphaScreen, biotin-AF4 peptide, FLAG-AF9, single point. Protein AF-9 (Homo sapiens), P42568. inhibition, % at 10 µM. 350,000 tested, 0.47% active;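 active means every replicate reaching a set inhibition limit, whatever the replicate mean, cut at about 25% in these data; inconclusive means mean inhibition reaches that limit but some replicates miss it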;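 further: 0% = plate neutral control median and 100% = total signal loss; the record names both 10 and 1 µM as test concentration; the first replicate is given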
Target sequence (P42568 whole entry, looked up): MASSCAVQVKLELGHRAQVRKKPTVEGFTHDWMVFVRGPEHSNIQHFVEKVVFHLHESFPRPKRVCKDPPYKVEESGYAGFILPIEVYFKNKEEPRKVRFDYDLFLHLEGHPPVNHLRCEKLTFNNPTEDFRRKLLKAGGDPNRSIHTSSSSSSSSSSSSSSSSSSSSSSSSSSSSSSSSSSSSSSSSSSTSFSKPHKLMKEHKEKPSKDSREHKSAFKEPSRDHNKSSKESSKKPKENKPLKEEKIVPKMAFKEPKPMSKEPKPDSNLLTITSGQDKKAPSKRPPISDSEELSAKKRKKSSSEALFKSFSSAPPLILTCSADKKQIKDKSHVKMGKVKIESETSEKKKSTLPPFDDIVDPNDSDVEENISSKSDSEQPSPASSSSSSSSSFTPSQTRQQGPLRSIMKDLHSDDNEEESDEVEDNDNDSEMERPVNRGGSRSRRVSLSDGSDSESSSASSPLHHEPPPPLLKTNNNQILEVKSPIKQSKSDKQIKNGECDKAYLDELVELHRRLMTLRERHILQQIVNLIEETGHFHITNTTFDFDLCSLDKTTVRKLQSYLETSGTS
Vif A3G = inhibitors of Vif binding to APOBEC3G peptide, primary screen, biochemical, TR-FRET, GST-Vif 1-94, biotin-A3G peptide, dose response retest (AID 1117319) | TR-FRET GST-Vif / biotin-A3G peptide binding; higher % means a stronger effect; test concentration not given here; strong numbers were not always called active | Virion infectivity factor (Human immunodeficiency virus type 1 group M subtype B (isolate … | 260,000 tested, 0.57% active | inhibition, %; hits with a dose series show IC50 in µM;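 active means above the screen mean plus three standard deviations and confirmed in dose response; inconclusive means results disagree or hit not tested in dose response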;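 further: Vif residues 1-94 fused to GST binding biotinylated APOBEC3G peptide 110-148; 0% = full assay without inhibitor and 100% = GST in place of GST-Vif; retest series ran down from 100 µM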
Beta apoptosis = inhibitors of cytokine-induced beta cell apoptosis, primary screen, luminescence | INS-1E cytokine-induced death, ATP luminescence, 48 h; percent of positive-control rescue, neutral wells zero | protection from apoptosis, % (concentration not given with the values) | 300,000 tested, 0.8% active | AID 435005, 2010;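 active means all replicates at 75% or more, or half of them and the mean; inconclusive means half reach 75% but not the mean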;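 further: 0% = cytokine-treated negative control wells and 100% = positive control rescue; higher means more ATP so stronger rescue from cytokine killing; wells of about 40 µL received 100 nL stock; the first replicate is given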
RanGTP-Impb inh = inhibitors of RanGTP-importin-beta interaction, primary screen, biochemical, FRET, CFP-Ran, YFP-importin-beta, homogeneous. Ran GTPase (GTP-bound) - importin-beta complex. cell-free CFP-Ran/YFP-importin-beta FRET ratio. inhibition, % (concentration not given with the values). 300,000 tested, 1.1% active;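 active means most replicates above 15%; inconclusive means exactly half above 15%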;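 further: 0% = DMSO wells and 100% = Ran loaded with GDP instead of GTP; wells of about 40 µL received 100 nL stock; the first replicate is given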
LANA-H2A inh = blockers of LANA interaction with H2A/H2B – biochemical, FP readout, HTS, primary screen | AID 2629, 2010 | 320,000 tested, 0.6% active | Protein LANA1 (Human herpesvirus 8 type P (isolate GK18)), Q9QR71 | cell-free LANA-H2A/H2B peptide, fluorescence polarization | inhibition, % (concentration not given with the values); in the data active means inhibition mostly above about 10%, no sharp cut-off; inactive means mostly below about 6.7%;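 further: stock transfer was 7.5 nL into about 10 µL; 0% = median of vehicle wells and 100% = median of positive control wells; one replicate is shown; the record names a cut of 25% in any replicate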
A1 inh = caspase 3/7 activation in MEF A1-2A-BIM cells, primary screen, A1 inhibitor project, cell-based, luminescence, HTS | caspase activation, % (test concentration not listed) | Caspase-Glo 3/7 luminescence, 3 h; percent of clofoctol response, vehicle zero | 330,000 tested, 0.066% active;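 active means over half of replicate activation scores above 10%, or exactly half above 10 with the replicate mean above 10; inconclusive means replicate mean below 10 yet half the replicates above 10; inactive means over half of replicates below 10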;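 further: wells of about 30 µL received 50 nL stock; many hits fall short of the cut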
T cruzi repl = inhibitors of intracellular T. cruzi growth, primary screen, luminescence, NIH3T3 host cells; T. cruzi beta-gal in NIH3T3, 90 h; inhibition, % (test concentration not listed); 300,000 tested, 1.4% active; AID 1885, 2009;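 active means mean inhibition across valid replicates above about 55%, limit read from the data; inconclusive means mean below that limit but half or more replicates reach it; inactive means mean below it, under half of replicates reach it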;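 further: signal also drops with host cell toxicity which is not excluded here; 0% = plate median of DMSO wells and 100% = zero luminescence signal; higher percent means less beta-gal luminescence so fewer parasites; stock transfer was 50 nL into about 50 µL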
The depositor's hits bear a star; ? = inconclusive; / = no result given.

SMILES | Calb FLC | AF4-AF9 inh | Vif A3G | Beta apoptosis | RanGTP-Impb inh | LANA-H2A inh | A1 inh | T cruzi repl
O=C(Nc1ccc(O)cc1)c1ccc2c(c1)C(=O)N(Cc1cccnc1)C2=O | 1 | -0.3 | / | -11 | 1.0 | -1.5 | -0.5 | -24
O=C(CSc1ncn[nH]1)Nc1ccccc1-c1ccccc1 | 6 | / | 2% | -5 | 4.9 | -1.7 | 0.8 | 0
CCCCN(C(=O)c1cccs1)c1c(N)n(Cc2ccccc2)c(=O)[nH]c1=O | / | -1.5 | -7% | 1 | / | -1.4 | -0.8 | /
N/N=C(\c1ccccc1)c1cc(Br)ccc1N | 1 | 3.6 | / | -4 | ? | 0.9 | 0.1 | 4
O=C(Nc1ccccc1)c1ccc(S(=O)(=O)NCc2ccco2)cc1 | 5 | / | 2% | / | 1.4 | 3.3 | -1.1 | -15
COc1ccc(-n2nc(C(=O)NCC(=O)NC3CCCCC3)c3ccccc3c2=O)c(OC)c1 | 23 | 0.5 | / | 1 | -2.2 | -0.4 | 0.7 | -3
CC(=O)Nc1ccc(C(=O)NN2C(=O)NC3(CCCCC3)C2=O)cc1 | -2 | -0.6 | -6% | 0 | -2.5 | / | -0.8 | -2
Cc1ccc(/C(N)=N/OC(=O)c2cccc(F)c2)cc1 | -8 | / | 1% | -5 | -3.4 | 3.5 | -4.2 | -14
Cc1nonc1NC(=O)CSc1nnnn1-c1ccccc1 | -1 | -1.1 | / | -8 | -3.8 | -3.6 | -0.1 | -15
O=C(NCc1ccccc1)C1=C[C@H](c2ccc(Br)cc2)C[C@H](OCCCCO)O1 | 13 | / | / | -7 | 1.3 | 0.7 | -0.4 | -11
Cc1ccc(NC(=O)C(=O)NCC2CCCN2S(=O)(=O)c2cccs2)cc1 (stereo not drawn) | 6 | 1.4 | 3% | -1 | -1.4 | 0.0 | 1.7 | -6
S=c1[nH]nc(Cc2cccc3ccccc23)o1 | -5 | 0.5 | / | -3 | ? | -6.0 | -0.2 | -18
COCCOC(=O)c1sc2nc[nH]c(=O)c2c1C | -3 | -0.4 | 13% | / | 3.9 | -0.7 | 0.6 | -8
Cc1cc(CN2C(=O)c3ccccc3C2=O)no1 | -4 | / | 2% | -3 | -0.4 | -0.5 | -0.5 | -22
C#CC(C)(C)NC(=O)c1sccc1Oc1ccc(F)cc1[N+](=O)[O-] | 18 | 5.1 | -7% | 6 | 3.2 | -3.2 | -0.6 | -7
COc1cc(OC)c(C(=O)OCC(=O)NC2CCCCCCC2)cc1OC | / | -2.1 | -1% | -2 | / | 2.5 | 0.6 | /
CC(C)CC(=O)NCCCN1CCN(CCCNC(=O)CC(C)C)CC1 | ? | / | 0% | -3 | -3.3 | 4.1 | 0.3 | -3
O=C(CSc1nc2cc(Cl)ccc2s1)N1CCCc2ccccc21 | 11 | -0.6 | -5% | -11 | -0.5 | -6.8 | -0.1 | 19
Cc1[nH]n(-c2ccc(Br)cc2)c(=O)c1/C=N/NC(=O)c1ccccc1 | -3 | 8.2 | / | 104* | -1.2 | -0.9 | -8.8 | -20
COc1ccc(CCNS(=O)(=O)c2ccc(-n3cnnn3)c(OC)c2)cc1OC | 1 | 0.3 | / | 4 | 3.3 | 0.0 | -0.7 | 12
CC(C)N1CCc2c(sc(NC(=O)C3CCCCC3)c2C(N)=O)C1 | -1 | 5.4 | / | -15 | 134* | -3.3 | -0.4 | -18
CCOc1ccc(-n2c(=S)sc3c(=O)[nH]c(SCC(=O)NCC4CCCO4)nc32)cc1 (stereo not drawn) | -9 | 3.3 | ? | -2 | 5.5 | / | 0.4 | -5
Cc1nn2c(SCC(=O)c3cccs3)cc(C(C)(C)C)nc2c1-c1ccccc1 | 38 | 0.3 | / | 11 | -10 | -6.1 | -1.1 | 59*
CN1CCC(OC(=O)COc2ccc(Cl)cc2Cl)CC1 | -1 | 0.5 | -7% | -4 | -1.1 | -0.3 | 0.2 | 0
Cc1cccc(Cn2c(N(C)CCO)nc3c2c(=O)[nH]c(=O)n3C)c1 | -8 | 3.9 | 31% | -3 | 2.1 | 14* | -0.5 | -4
COc1ccc(CCNC(=O)COC(=O)c2cc(S(=O)(=O)NCc3ccccc3)ccc2O)cc1OC | -5 | -4.5 | 15% | -2 | -0.9 | -4.3 | -0.1 | 2
Cc1cc(NC(=O)Cc2cc(F)cc(F)c2)no1 | 1 | -2.0 | -1% | -1 | 3.8 | 4.9 | -1.3 | 3
CN1C2CCC1CC(NC(=O)CSc1ccc(C(C)(C)C)cc1)C2 (stereo not drawn) | -7 | 3.1 | 9% | -7 | 0.9 | 6.3 | -0.7 | 13
CC(C)(C)c1ccc(OC2=CS(=O)(=O)c3ccccc32)cc1 | 6 | / | -4% | 8 | 1.5 | -0.4 | 0.1 | 25
N#Cc1ccc(OCC(=O)NCCN2CCOCC2)cc1 | / | -1.7 | -7% | 0 | / | -0.7 | 0.7 | /
CCOc1ccc(-n2c(SCC(=O)N3CCC(C(=O)O)CC3)nc3ccccc3c2=O)cc1 | 11 | -0.4 | -2% | -12 | 2.6 | -3.5 | -0.4 | 3
CCc1nnc(NC(=O)CSc2nnc(-c3ccoc3C)n2CC(C)C)s1 | -5 | / | 8% | / | -6.4 | 3.0 | 0.7 | 3
c1ccc(Sc2ccccn2)cc1 | 0 | 2.3 | / | -2 | 0.3 | -7.6 | 0.6 | -6
COC(=O)c1c(N)sc2c1CC(C)(C)OC2 | -1 | -11 | 3% | 0 | ? | -1.8 | 0.0 | 7
COc1cc(C2C(C#N)=C(N)Oc3n[nH]c(-c4ccccn4)c32)cc(OC)c1OC (stereo not drawn) | -22 | / | 4% | -2 | -0.7 | -2.0 | 1.5 | -14
CCC(=O)OC1CSc2nc3ccccc3n2C1 (stereo not drawn) | -7 | / | 2% | 4 | 0.4 | 3.6 | 0.4 | -3
Cc1occc1C(=O)N/N=C/C=C/c1ccc(N(C)C)cc1 | -8 | 5.8 | / | 2 | -34 | 1.5 | -4.3 | -1
O=C(Nc1ccc2c(c1)OCO2)C1CC(=O)N(c2ccccc2)C1 (stereo not drawn) | -1 | -3.6 | 0% | -10 | 0.3 | -0.6 | -0.1 | 6
CC(NC(=O)COc1ccc(/C=N/NS(=O)(=O)c2ccccc2)cc1)c1ccccc1 (stereo not drawn) | -4 | / | -2% | -6 | 1.0 | 0.3 | -0.5 | -5
COc1ccc(CN(CC2CCC(C(=O)O)CC2)C(=S)Nc2cccc(C)c2)cc1 (stereo not drawn) | ? | -0.9 | 0% | -1 | 1.8 | -1.5 | 0.6 | 0
O=C(C(=S)N1CCOCC1)c1c[nH]c2ccccc12 | -5 | -1.6 | / | -12 | 1.5 | 2.9 | 0.9 | -8
CCCOP(=O)(c1ccc(N(C)C)cc1)C(O)c1ccccc1OC (stereo not drawn) | ? | / | 8% | -2 | 6.5 | -2.6 | -0.2 | -9
Cn1c(=O)c2c(nc(N3CCN(c4ccccn4)CC3)n2Cc2ccccc2Cl)n(C)c1=O | -3 | / | 7% | 6 | -1.1 | 3.4 | -0.8 | 15
Cc1cc(NC(=O)COc2ncnc3sc(C)c(C)c23)no1 | 7 | / | -10% | -1 | -0.4 | 3.9 | 0.1 | -12
CCOc1cccc(-c2c(C(=O)N/N=C/c3cccnc3)nnn2-c2nonc2N)c1 | -5 | -2.3 | / | / | 6.2 | -2.1 | 1.1 | -21
Cc1cc(=O)n2nc(-c3ccccc3)sc2c1C#N | 1 | / | -3% | -1 | -3.1 | -0.5 | 0.2 | -10
CN(C)S(=O)(=O)c1ccc(/C(O)=C2/C(=O)C(=O)N(Cc3cccnc3)C2c2ccco2)cc1 (stereo not drawn) | -11 | / | 12% | -5 | 1.2 | 2.2 | -0.8 | -4
C=CCn1c(SCc2cc(C(C)=O)ccc2OCC)nc2ccccc2c1=O | 2 | 9.0 | -1% | 6 | ? | -4.5 | 0.2 | 7
Cc1ccc(NC(=O)NNC(=O)CN2C(=O)COc3ccccc32)cc1 | -2 | 1.7 | -4% | -6 | -5.0 | 1.9 | -0.2 | 0
CC(C(=O)N1CCCCC1)n1sc2ccccc2c1=O (stereo not drawn) | 3 | / | 26% | -8 | 5.0 | 0.7 | 0.4 | 3

Following part
SMILES | Calb FLC | AF4-AF9 inh | Vif A3G | Beta apoptosis | RanGTP-Impb inh | LANA-H2A inh | A1 inh | T cruzi repl
CC1CC(NC(=O)c2ncn[nH]2)CC(C)(C)C1 (stereo not drawn) | -6 | / | 4% | -8 | 1.5 | 1.8 | 0.8 | -25
O=C(NC1CCSc2ccccc21)c1cccc(Br)c1 (stereo not drawn) | -5 | -2.3 | -4% | -4 | 1.3 | 2.1 | -0.4 | 1
COC(=O)N1C(=O)[C@](c2ccccc2)(C(C)C)N1C(=O)OC | -8 | -3.6 | / | 3 | -0.6 | -1.1 | -0.5 | -25
O=C(NCCc1ccc(F)cc1)Nc1ccc([N+](=O)[O-])cc1 | -28 | -1.2 | / | 11 | / | 0.0 | -0.8 | /
Cc1ccc(S(=O)(=O)Oc2ccccc2/C=N/N=C(N)N)cc1 | -4 | 2.8 | 1% | 4 | 0.5 | 38* | 0.7 | 22
CCOC(=O)C(NCCc1ccccc1)(NC(C)=O)C(F)(F)F (stereo not drawn) | 4 | 1.8 | 1% | -1 | -0.1 | -0.3 | -0.2 | 2
O=C(NCc1ccco1)/C(=C\c1cccc([N+](=O)[O-])c1)NC(=O)c1ccco1 | -8 | -0.4 | / | -3 | -2.5 | -1.2 | -1.1 | 8
O=C(Nc1nc2ccccc2n1CCN1CCCCC1)c1ccc(Cl)cc1 | -2 | / | ? | 8 | 4.8 | 4.3 | 0.5 | 2
CCCOc1ccc(N2C(=O)CC(N3CCN(c4nc5ccccc5s4)CC3)C2=O)cc1 (stereo not drawn) | 0 | / | 1% | -9 | -4.2 | -1.1 | 0.2 | -8
CC(C)(C)c1ccc(OCC(O)CN2CCN(C(=O)c3ccccc3)CC2)cc1 (stereo not drawn) | -4 | -1.9 | / | -3 | 6.1 | 4.0 | 0.1 | 3
C=CC(n1cncn1)C(O)(c1ccccc1)c1ccccc1 (stereo not drawn) | -3 | / | / | -5 | 2.1 | -3.8 | 0.0 | -2
O=C(O)CCCC(=O)OCCCCc1cccs1 | 1 | / | -3% | 7 | ? | 5.2 | -0.1 | -21
CS(=O)(=O)N(Cc1ccco1)Cc1ccccc1Cl | -4 | / | -1% | -3 | -3.6 | 0.6 | 0.3 | 4
Cc1ccc(SCCOCCN2CCOCC2)cc1 | -42 | -3.3 | 4% | -3 | 1.7 | 6.8 | -0.3 | 18
